Bioassay records (PubChem BioAssay)
RecA splice inh – blocks M. tuberculosis RecA intein splicing; P9WHJ3; cell-free RecA intein splicing, fluorescence; inhibition, %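 (about 9 µM by stock and volumes)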; 290,000 compounds, 0.75% hits; AID 2221; in the data active means inhibition above about 30%; inconclusive means no clear call, values can overlap the other calls;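 further: 0% = vehicle wells and 100% = reference inhibitor control wells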
Target sequence (P9WHJ3 whole entry, looked up, canonical isoform): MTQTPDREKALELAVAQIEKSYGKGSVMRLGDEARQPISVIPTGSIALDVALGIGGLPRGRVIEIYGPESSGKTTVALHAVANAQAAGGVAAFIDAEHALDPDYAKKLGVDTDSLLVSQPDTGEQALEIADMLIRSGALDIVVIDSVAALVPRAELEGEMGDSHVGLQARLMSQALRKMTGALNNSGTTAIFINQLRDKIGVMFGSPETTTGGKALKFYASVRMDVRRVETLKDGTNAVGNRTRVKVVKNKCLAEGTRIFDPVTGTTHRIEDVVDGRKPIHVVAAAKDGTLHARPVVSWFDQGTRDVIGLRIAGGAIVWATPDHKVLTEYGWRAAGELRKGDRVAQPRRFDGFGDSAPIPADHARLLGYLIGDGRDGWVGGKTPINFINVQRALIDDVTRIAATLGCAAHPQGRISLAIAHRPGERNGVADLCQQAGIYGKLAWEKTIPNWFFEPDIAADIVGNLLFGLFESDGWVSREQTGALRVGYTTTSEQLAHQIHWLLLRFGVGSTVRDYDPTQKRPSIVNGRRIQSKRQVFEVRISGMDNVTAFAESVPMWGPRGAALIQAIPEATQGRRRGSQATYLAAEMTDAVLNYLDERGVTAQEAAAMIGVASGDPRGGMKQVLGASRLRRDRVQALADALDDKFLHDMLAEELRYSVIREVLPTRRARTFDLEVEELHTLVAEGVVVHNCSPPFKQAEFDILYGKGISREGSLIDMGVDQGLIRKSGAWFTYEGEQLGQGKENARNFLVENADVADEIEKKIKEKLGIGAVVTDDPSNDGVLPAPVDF
YopH inh – inhibitors of Yersinia enterocolitica YopH tyrosine phosphatase | fluorescence Ex485/Em525 | 140,000 compounds, 0.16% hits | inhibition, %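 (about 10 µM by stock and volumes)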 | AID 898;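 active means inhibition of 50% or more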;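 further: controls were vehicle for no effect and minimum signal wells for full effect; inactives centre near -20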
Mtb bLac sens – beta-lactam sensitization of Mtb H37Rv | M. tuberculosis H37Rv growth with meropenem, percent inhibition; hits of this screen are not shown here | inhibition, % at 25 µM | 330,000 compounds, 0.27% hits;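 active means about 74% or more and at least 40 points above the plate without the antibiotic, then above 30% in a dose series; inconclusive means first-round hits that could not be retested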;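 further: growth measured after seven days incubation then overnight dye step; 0% = bacteria only wells and 100% = bacteria with antibiotic; twin plates without the antibiotic show which effects depend on it; some results filed as inactive read as strong as hits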
Mtb H37Rv – M. tuberculosis H37Rv growth inhibitors, H37Rv strain (AID 1626) | inhibition, % at 10 µM; hits with a dose series show IC50 in µM | 220,000 compounds, 0.95% hits | M. tuberculosis H37Rv growth inhibition; higher % means a stronger effect;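 active means confirmed in a dose series; inconclusive means inhibition above 80% but not taken into the dose series; inactive means below 80% or under 30% at every dose of the series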;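 further: bacteria incubated seven days before Alamar blue readout; 0% = bacteria only wells and 100% = bacteria with antibiotic wells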
Arbovirus inh – arbovirus infection inhibition; arbovirus infection cell-based antiviral screen; 200,000 compounds, 0.37% hits; AID 1251; inhibition, % at 10 µM;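 active means inhibition from about 30%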;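 further: bluetongue infection of BSR cells; cell survival read as ATP light after 72 h; 0% = infected wells without compound and 100% = uninfected wells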
Arbovirus inh repeat – also measured in Arbovirus inh; calls as there; inhibition, %; measured here: 10K subset replicate screen; many hits read low in the repeat;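 first of two repeat runs on a subset; 0% = infected and 100% = uninfected wells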
Active calls of the source: *; ? = inconclusive; · = not tested or not shown.

SMILES	RecA splice inh	YopH inh	Mtb bLac sens	Mtb H37Rv	Arbovirus inh	others
CCOC(=O)CCNC(=O)N1CCCC(CNS(=O)(=O)c2cccs2)C1 (stereo not given)	-0.7	·	-7	·	5
COc1cc(/C=C(\NC(=O)c2ccccc2)C(=O)Nc2nccs2)ccc1OC(C)=O	-2.3	·	15	·	·
CC(C(=O)NC1C=CS(=O)(=O)C1)N1C(=O)/C(=C\c2ccccc2)SC1=S (stereo not given)	-2.1	·	-2	·	·
COC(C/C=C/[C@H](O)[C@H](C)OCc1ccccc1)OC	-1.5	·	-3	-1%	·
CC(C)(C)OC(=O)C(Cc1ccc(OC(C)(C)C)cc1)NC(=O)CNC(=O)OCc1ccccc1 (stereo not given)	-0.8	-6	-2	-1%	2
CCOC(=O)c1cc(CC)sc1NC(=O)Cc1ccsc1	3.2	-24	4	12%	2
CCOc1ccc(OCCCCNCCN)cc1	0.7	-16	-8	·	-5
Cc1c(Cl)cccc1NS(=O)(=O)c1c(C(=O)N2CCOCC2)c(C)n(C)c1C	-0.7	·	6	·	·
COc1ccc(CN(Cc2cc3ccc(C)cc3[nH]c2=O)Cc2nnnn2C2CCCC2)cc1	·	·	2	-5%	-24
O=C(Nc1ccccc1-c1nnn(CC(=O)N2CCCc3ccccc32)n1)c1ccc(Cl)cc1	-0.3	-2	2	20%	7
C=CCNC(=O)c1ccc(C)cc1Cl	0.1	-48	-15	-3%	0	Arbovirus inh repeat=-1
O=C(NNS(=O)(=O)c1ccccc1)c1ccc(O)cc1	-4.5	-28	9	7%	4
COc1cccc(N2CCN(Cc3ccc(Cl)cc3)CC2)c1	2.0	-1	-8	-3%	0
Cc1ccccc1NC(=S)NCc1ccc(Cl)cc1	2.6	-22	4	3%	6
Cc1cccc(OCC(=O)N/N=C/c2cc([N+](=O)[O-])ccc2N2CCOCC2)c1	0.2	-31	-5	-1%	-4
O=C(NCc1ccccc1)c1ccc(NC(=O)C2CCCO2)cc1 (stereo not given)	1.1	·	0	·	·
O=C(O)CSc1ncccn1	-0.7	·	2	7%	3
Fc1ccc(NC(=S)N2CCc3ccccc3C2)c(F)c1	0.5	·	-1	5%	6
N#Cc1ccc(-c2ccc(OCC(=O)Nc3cccnc3)cc2)cc1	-0.6	·	99	·	·
O=C(CCSc1ccccc1Cl)Nc1cccc([N+](=O)[O-])c1	13	-30	2	3%	-14
O=C(O)/C(=C\c1cccc(OCc2ccccc2)c1)c1ccc(F)cc1	6.6	·	8	·	·
CCC(=O)N1CCc2cc(S(=O)(=O)CCC(=O)Nc3ccc(C(C)=O)cc3)ccc21	-0.5	·	3	·	·
CCOc1cc(/C=N\NC(=O)CC(=O)NCCc2ccccc2)ccc1O	·	·	-6	-3%	11
COC(=O)c1ccc(COC(=O)c2ccccn2)cc1	-2.1	-2	28	5%	10
CS(=O)(=O)c1ccc2nc(NC(=O)C3C4C=CC(C4)C3C(=O)O)sc2c1 (stereo not given)	-0.5	-13	-14	-5%	10
COc1ccc(S(=O)(=O)Nc2cccnc2)cc1	-9.1	·	-2	-1%	·
CCOc1ccc(S(=O)(=O)NCc2cccnc2)c2ccccc12	-1.7	·	2	·	·
CCNc1nc(SC)nc(N(C#N)CC(=O)OC)n1	10	11	7	-1%	5
CC(NC(=O)c1ccccc1F)c1cccc2ccccc12 (stereo not given)	3.7	·	4	·	·
COc1ccc(OC)c(CCNC(=O)c2ccc3c(c2)N(Cc2ccccc2)CCS3)c1	0.3	·	1	·	·
CC(C)(C)C(=O)N/C(N)=N/c1nc2ccccc2o1	0.9	·	56	8%	·
O=C(Nc1cccc(Cl)c1)OC1CN2CCC1CC2 (stereo not given)	1.7	·	-15	2%	·
CC1=CC(C)C2(COC(=O)Nc3ccccc3)COC(C)C1C2C (stereo not given)	7.0	·	-7	-7%	2
Cn1cccc1/C=C1\SC(=S)N(NC(=O)c2ccccc2)C1=O	·	-18	-6	6%	-18
N#CC(C#N)=C1C(=O)N(CCN2CCOCC2)c2ccccc21	6.5	·	-4	1%	·
COc1ccc(CCNc2cc(C)nc3c(-c4ccc(Cl)cc4)cnn23)cc1OC	10	-14	87	?	10
CCNC(=O)COC(=O)c1cccc(Br)c1	-0.5	·	2	1%	·
O=C(NCCC1=CCCCC1)N[C@@H](Cc1ccccc1)C(=O)O	-5.2	-9	-14	4%	5
CCOC(=O)C1CCCN(C(=O)c2ccc(Cl)cc2)C1 (stereo not given)	-6.1	·	-5	-1%	2
COC(C/C=C/C(=O)[C@H](C)OCc1ccccc1)OC	-0.5	·	99	-3%	·
CCN(CC)S(=O)(=O)c1ccc(S(=O)(=O)NCC2CCCO2)cc1 (stereo not given)	0.8	·	1	·	·
Cc1nc(-c2cccc(Cl)c2)n[nH]1	0.1	·	-4	1%	·
COc1cc(S(=O)(=O)Nc2ccc(C)cc2)ccc1N=Cc1c(C)c(C#N)c(=O)n(C)c1O	-84	·	6	12%	6
CCOC(=O)C1(CCOc2ccccc2)CCN(Cc2cccc3c2OCO3)CC1	2.9	·	-1	-3%	5
COc1ccc(CN(C)C(=O)CCl)cc1	·	·	·	17%	7
CC(C)COc1ccc(-c2cc(C(=O)NN)[nH]n2)cc1	3.3	-22	58	4%	-33
COc1cccc(-c2nnc(NC(=O)c3ccco3)s2)c1	0.7	·	-2	·	·
Cc1ccc(C)c(NC(=S)N(C2CCCCC2)C(C)c2cccnc2)c1 (stereo not given)	-1.5	·	-6	6%	·
O=C(CNC(=O)c1ccc(Cl)c([N+](=O)[O-])c1)OCN1C(=O)c2ccccc2C1=O	-0.5	·	1	·	·
Cc1cc(C)cc(N2CC(O)=C(c3nc4ccccc4c(=O)[nH]3)C2=N)c1	1.5	·	-5	-1%	-13
CCCCNC(=O)C(=O)Nc1cc2c3c(c1)CCC(=O)N3CCC2	-0.7	·	0	·	·
Cc1onc(-c2ccccc2)c1C(=O)Nc1nc(-c2ccccc2)cs1	3.0	-1	-2	0%	9
C=CCc1ccc(OCc2ccc(C(=O)O)o2)c(OC)c1	-0.4	·	-3	·	·
C=CCOC(=O)C1=C[C@@H](c2ccc(Br)cc2)C[C@@H](OCCCCO)O1	7.5	·	-4	8%	·
CC1CCN(c2ccc(-c3ccc(NC(=O)C(F)(F)F)cc3)nn2)CC1	4.4	·	?	·	·
Cc1ccc2nsnc2c1NC(=O)c1sc2ccccc2c1Cl	-3.6	-34	1	-7%	-7
O=C(CCCN1C(=O)/C(=C\c2cccc(Br)c2)SC1=S)Nc1cccnc1	2.3	·	3	33%	19
O=C(c1cccn(Cc2ccc(Cl)c(Cl)c2)c1=O)N1CCOCC1	-0.1	-38	-12	-2%	2
CCOC(=O)c1c(CN2CCCCC2)n(C)c2cc(Br)c(O)cc12	-1.7	-20	11	-6%	9
Cc1c(C(=O)NC(=S)Nc2ccc(N3CCOCC3)cc2)cccc1[N+](=O)[O-]	0.4	·	3	0%	-3
Next section.
SMILES	RecA splice inh	YopH inh	Mtb bLac sens	Mtb H37Rv	Arbovirus inh	others
COc1ccc(CC(=O)OCC(=O)NCc2ccc(Cl)cc2)cc1	0.4	·	-2	4%	10
O=C(c1cc2cc([N+](=O)[O-])ccc2oc1=O)N1CCN(C2CCCCC2)CC1	1.0	·	6	3%	1
Cc1cccc(CN2CCNC2=O)c1	-4.9	-8	?	-5%	1
COc1ccc(N2CCN(C(c3ccccc3)c3nnnn3Cc3ccc(F)cc3)CC2)cc1 (stereo not given)	5.3	-36	10	14%	-9
Cc1c(N)cccc1-n1cnnn1	-2.7	·	-4	-2%	2
N#C/C(=C\c1cccnc1)c1ccc(Br)cc1	21	·	8	0%	·
O=C(NCCN1CCN(C(=O)c2cccc([N+](=O)[O-])c2)CC1)C(=O)NCc1ccc(Cl)cc1	-0.6	·	-7	·	·
NS(=O)(=O)c1ccc(CCNC(=O)COC(=O)CCSc2ccc(Cl)cc2)cc1	-0.5	-25	-7	-1%	-10
Fc1ccccc1OCC1CCCN(Cc2nc(CC3CC3)no2)C1 (stereo not given)	2.2	·	-8	1%	10
Cc1ccc(C)c(N2CCN(CC(=O)Nc3ccc([N+](=O)[O-])cc3C(=O)Nc3ccccc3F)CC2)c1	-1.4	-23	-6	4%	11
COC(=O)c1ccc(NC(=O)CCS(=O)(=O)c2ccc(C)cc2)cc1	1.3	·	0	·	·
O=C(CSc1nnc(-c2ccc(O)cc2)o1)NNC(=O)c1ccncc1	1.9	·	0	·	·
CCOC(=O)C1CCCN(C(=O)C(C)Oc2ccc(Cl)cc2Cl)C1 (stereo not given)	·	13	-8	-2%	-2
Nc1ccc2oc(-c3ccccn3)nc2c1	0.4	-20	-6	-8%	-12
Cc1noc(C)c1C(=O)N1CCc2ccccc2C1	3.8	0	·	-11%	1
O=C(CCS(=O)(=O)Cc1ccccc1F)N1CCc2ccccc2C1	2.7	-15	-19	·	3
Cc1cc(-n2c(C)cc(C(=O)CSc3nnnn3-c3ccccc3)c2C)no1	8.0	-48	-9	11%	-7
CCCCn1nc(C(=O)OCC(=O)Nc2sccc2C(N)=O)c2ccccc2c1=O	4.5	·	14	0%	3
COc1ccc(CCNC(=O)CSc2nnc(-c3cccc(C)c3)o2)cc1OC	·	-36	-20	-1%	-1
CCOC(=O)c1c(C)[nH]c(C)c1C(=O)CSc1nc2ccccc2c(=O)n1-c1ccc(F)cc1	7.7	·	-5	10%	-5
COc1ccc(C(=O)NCc2csc(C(C)C)n2)cc1OC1CCN(C(C)=O)CC1	1.0	·	-2	·	·
CC(C)[C@@H](C(=O)NC1CCCC1)N1C(=O)N2CCc3c([nH]c4ccccc34)[C@@]2(C)C1=O	5.5	·	-4	·	·
CCC(C)(C)NC(=O)C(c1ccc(C)cc1)N(CC1CCCO1)C(=O)CNC(=O)c1cccs1 (stereo not given)	1.0	-4	-2	-5%	-3
NNC(=O)c1cc2cc3ccccc3nc2s1	·	·	-6	4%	-2
COCC(=O)Nc1ccc(F)cc1	-2.4	·	-3	-5%	4
Clc1cccc(Cl)c1CN1CCN(c2ncccn2)CC1	1.5	·	-3	·	·
COC(=O)C1=C(C)N(C)C(=O)NC1c1c(O)ccc2ccccc12 (stereo not given)	0.0	·	1	·	·
CCn1c(=O)cc(OCC(=O)Nc2ccc(OC)c(OC)c2)c2ccccc21	-3.9	·	-1	3%	4
COc1ccc(C(=O)Nc2ccc(-c3cn4ccsc4n3)cc2)cc1S(=O)(=O)N1CCOCC1	0.1	-32	0	3%	5
CCCCN(CC)CCNC(=O)c1cc2c(=O)[nH]c3ccc(C)cc3c2s1	-0.4	·	0	·	·
COC(=O)c1c(NC(=O)COc2ncnc3ccccc23)sc(C)c1C	5.0	-39	-9	4%	-6
CCS(=O)(=O)N1CCN(c2ccc([N+](=O)[O-])c(NC(C)c3ccccc3)c2)CC1 (stereo not given)	0.3	-13	-4	9%	-5
CCCc1ccc(OCc2ccc(C(=O)O)o2)c(OC)c1	-0.7	-51	-5	-14%	12
O=C(CC(=O)c1ccccc1)Nc1cccnc1Cl	0.9	-22	-3	2%	3
CN1CCN(C(=O)c2cc([N+](=O)[O-])cc([N+](=O)[O-])c2)CC1	-0.7	·	2	·	·
CSc1nc2ccc(Nc3nc(N4CCOCC4)nc(N4CCOCC4)n3)cc2s1	·	-37	12	6%	-5	Arbovirus inh repeat=-17
COc1cc(NC(=O)c2ccccc2[N+](=O)[O-])ccc1NC(=O)c1cc2ccccc2o1	6.4	·	-2	·	·
CC1=CC(c2ccc(Cl)cc2)n2ncnc2N1 (stereo not given)	1.1	·	-8	-8%	·
O=C(c1ccccc1)n1c(=O)cc[nH]c1=O	-1.1	·	-2	·	·
CCCNC(=O)CSc1n[nH]c(=O)n1CCc1ccccc1	-1.5	·	-1	·	·
COc1ccc(/C=C/C(=O)Nc2ccccc2C(F)(F)F)cc1OC	-0.4	-38	-5	·	2
O=C(COc1ccc(Cl)cc1Cl)NC(=S)Nc1ccc(CN2CCOCC2)cc1	7.9	·	8	-17%	·

Compounds from the list above with a COOH group:
SMILES	RecA splice inh	YopH inh	Mtb bLac sens	Mtb H37Rv	Arbovirus inh	others
O=C(O)CSc1ncccn1	-0.7	·	2	7%	3
O=C(O)/C(=C\c1cccc(OCc2ccccc2)c1)c1ccc(F)cc1	6.6	·	8	·	·
CS(=O)(=O)c1ccc2nc(NC(=O)C3C4C=CC(C4)C3C(=O)O)sc2c1 (stereo not given)	-0.5	-13	-14	-5%	10
O=C(NCCC1=CCCCC1)N[C@@H](Cc1ccccc1)C(=O)O	-5.2	-9	-14	4%	5
C=CCc1ccc(OCc2ccc(C(=O)O)o2)c(OC)c1	-0.4	·	-3	·	·
CCCc1ccc(OCc2ccc(C(=O)O)o2)c(OC)c1	-0.7	-51	-5	-14%	12

Some of the compounds tested. The share of hits here may be higher or lower than overall.
